GLA spleen mod – qHTS Assay for Inhibitors and Activators of Human alpha-Galactosidase From Spleen Homogenate; human spleen homogenate, 4MU-alpha-Gal fluorescence, 40 min; Potency, µM (series often up to 80 µM), for inactives: at the top dose activity change, negative = inhibition, most hits filed as inhibitors; hit rate 0.008% among 240,000;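 note: 0% = enzyme with vehicle and -100% = no enzyme basal signal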
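Fluorogenic readout (Ex 365/Em 440 nm) of 4-methylumbelliferone released from 1 mM 4-MU-alpha-galactoside by spleen homogenate, 40 min at 37C, pH 5.0. Data normalized to no-enzyme and enzyme controls; Hill-equation AC50 from compound titrations.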
ALDH1A1 block – qHTS Assay for Inhibitors of Aldehyde Dehydrogenase 1 (ALDH1A1); Aldehyde dehydrogenase 1A1 (Homo sapiens), P00352; Purified ALDH1A1, NADH fluorescence, propionaldehyde substrate; Potency, µM (highest dose often 75.3 µM), for the others: at the highest dose activity, negative = inhibition, actives largely listed as inhibitors; hit rate 7.3% among 220,000; AID 1030, 2008; active = well fitted inhibition curve with a large enough effect, not every such curve was filed as active; inconclusive = small, poorly fitted or top-dose-only effect, or another doubt; inactive = no such curve, though single readings can be large or run the other way;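 note: plate controls were no enzyme wells and a reference inhibitor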
Target sequence (P00352 whole entry, looked up): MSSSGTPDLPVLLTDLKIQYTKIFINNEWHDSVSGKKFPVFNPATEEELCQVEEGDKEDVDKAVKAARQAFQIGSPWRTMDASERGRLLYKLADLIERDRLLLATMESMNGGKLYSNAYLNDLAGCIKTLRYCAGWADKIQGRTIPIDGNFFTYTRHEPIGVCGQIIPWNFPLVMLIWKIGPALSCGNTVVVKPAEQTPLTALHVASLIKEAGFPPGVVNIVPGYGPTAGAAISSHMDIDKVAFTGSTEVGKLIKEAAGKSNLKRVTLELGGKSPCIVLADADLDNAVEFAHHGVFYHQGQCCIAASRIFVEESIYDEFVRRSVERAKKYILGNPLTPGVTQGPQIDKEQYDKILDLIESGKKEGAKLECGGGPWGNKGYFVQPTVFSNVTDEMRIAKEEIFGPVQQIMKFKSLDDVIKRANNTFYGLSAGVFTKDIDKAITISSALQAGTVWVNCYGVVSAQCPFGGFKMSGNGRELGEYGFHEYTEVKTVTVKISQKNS
TexasRed fluor – Total Fluorescence Counterscreen for Inhibitors of the Interaction of Thyroid Hormone Receptor and Steroid Receptor Coregulator 2. hit rate 0.29% among 280,000. TRb/SRC2 Texas Red total fluorescence interference. Potency, µM (highest dose often 106 µM), for inactives: at the highest dose fluorescence change, negative = quenching; active = well fitted curve in either direction with a large enough effect; inconclusive = small, poorly fitted or top-dose-only effect
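Human TRb ligand-binding domain at 0.6 uM with 20 nM Texas Red SRC2 peptide in Tris buffer containing 1 uM T3 and 5% DMSO, incubated with compound 5 h at ambient temperature. Total fluorescence (555/632 nm) calculated as parallel + 2 × perpendicular.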
TRb SRC2 PPI – qHTS for Inhibitors of the Interaction of Thyroid Hormone Receptor and Steroid Receptor Coregulator 2. Thyroid hormone receptor beta (Homo sapiens), P10828. TRbeta-SRC2 peptide binding, fluorescence polarization; receptor liganded with 1 µM T3. Potency, µM (doses to about 106 µM), for inactives: at the highest dose activity change, negative = inhibition, hits mostly inhibitors. hit rate 0.065% among 280,000. AID 1469, 2008;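 note: plate controls were bound peptide for no effect and peptide without receptor for full effect; nearly all actives have a fitted effect of over 50% in size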
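A fluorescence polarization screen tested compounds at multiple concentrations against complex formation between 0.6 uM TRb ligand-binding domain and 20 nM Texas Red SRC2 peptide, with 1 uM T3 present; readout after 5 hr.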
Active calls of the source: *; ? = inconclusive; / = not tested or not shown; & = joins results of further samples; ! = not active in a repeat; [ ] = another dose, or the depositor's remark. Unless noted, calls come from the whole dose curve; as a rule, active = well fitted inhibition curve with a large enough effect; inconclusive = small, poorly fitted or top-dose-only effect, or effect the other way; inactive = flat fitted curve, though single readings scatter. Unless noted, % is set by controls: 0 for no effect and ±100 for the full control effect; potency is the fitted concentration of half-maximal effect. An excerpt. The share of hits here may be higher or lower than overall.

Preview, 10 compounds:
(1) NC12CC3CC(CC(C3)C1)C2
(2) O=C1c2cccc(Sc3ccccc3)c2C(=O)c2c(Sc3ccccc3)cccc21
(3) Cc1cn([C@H]2C[C@H](N=[N+]=[N-])[C@H](CO)O2)c(=O)[nH]c1=O
(4) CCC1(C)CC(=O)NC1=O (stereo not given)
(5) CC(=O)NC[C@@H]1CN(c2ccc(N3CCOCC3)c(F)c2)C(=O)O1
(6) Nc1ccn([C@@H]2O[C@H](CO)[C@@H](O)[C@@H]2O)c(=O)n1
(7) CCN1CCC[C@H]1CNC(=O)c1cc(S(N)(=O)=O)ccc1OC
(8) Cc1nn(-c2ccccc2)c(Cl)c1/C=N/NC(=O)c1ccncc1
Screen / compound no.,1,2,3,4,5,6,7,8
GLA spleen mod,-2.2%,6.2%,/,-1.2%&0.3%,/,?,6.8%,3.3%
ALDH1A1 block,8.8%,/,4.1%[13.5 µM],5.9%&-0.8%,/,4.8%,-7.5%,/
TRb SRC2 PPI,-15.2%,11.7%,6.9%,3.0%&2.3%,9.3%,-6.5%&0.6%,-5.7%,-2.5%
TexasRed fluor,?,-0.1%,0.6%,-0.1%&-1.4%,-0.8%,1.9%&2.9%,-2.1%,-2.5%

(9) O=C(NC[C@H]1CCCCN1)c1cc(OCC(F)(F)F)ccc1OCC(F)(F)F
(10) CSC(=N)N
Screen / compound no.,9,10
GLA spleen mod,-1.6%,-7.8%&-5.7%
ALDH1A1 block,-1.4%,9.7%&-7.7%
TRb SRC2 PPI,-8.2%,3.2%&-2.4%
TexasRed fluor,0.0%,-2.6%&0.3%

Results (from the top)
(1) NC12CC3CC(CC(C3)C1)C2
(2) O=C1c2cccc(Sc3ccccc3)c2C(=O)c2c(Sc3ccccc3)cccc21
(3) Cc1cn([C@H]2C[C@H](N=[N+]=[N-])[C@H](CO)O2)c(=O)[nH]c1=O
(4) CCC1(C)CC(=O)NC1=O (stereo not given)
(5) CC(=O)NC[C@@H]1CN(c2ccc(N3CCOCC3)c(F)c2)C(=O)O1
(6) Nc1ccn([C@@H]2O[C@H](CO)[C@@H](O)[C@@H]2O)c(=O)n1
Screen / compound no.,1,2,3,4,5,6
GLA spleen mod,-2.2%,6.2%,/,-1.2%&0.3%,/,?
ALDH1A1 block,8.8%,/,4.1%[13.5 µM],5.9%&-0.8%,/,4.8%
TRb SRC2 PPI,-15.2%,11.7%,6.9%,3.0%&2.3%,9.3%,-6.5%&0.6%
TexasRed fluor,?,-0.1%,0.6%,-0.1%&-1.4%,-0.8%,1.9%&2.9%

(7) CCN1CCC[C@H]1CNC(=O)c1cc(S(N)(=O)=O)ccc1OC
(8) Cc1nn(-c2ccccc2)c(Cl)c1/C=N/NC(=O)c1ccncc1
(9) O=C(NC[C@H]1CCCCN1)c1cc(OCC(F)(F)F)ccc1OCC(F)(F)F
(10) CSC(=N)N
(11) CCOc1ccc(NC(=O)c2cc3ccccc3cc2O)cc1
(12) CC[C@@H](C)[C@H]1O[C@]2(CC[C@@H]1C)C[C@@H]1C[C@@H](C/C=C(\C)[C@@H](O[C@H]3C[C@H](OC)[C@@H](O[C@H]4C[C@H](OC)[C@@H](O)[C@H](C)O4)[C@H](C)O3)[C@@H](C)/C=C/C=C3\CO[C@@H]4[C@H](O)C(C)=C[C@@H](C(=O)O1)[C@]34O)O2
Screen / compound no.,7,8,9,10,11,12
GLA spleen mod,6.8%,3.3%,-1.6%,-7.8%&-5.7%,-6.7%,-4.5%
ALDH1A1 block,-7.5%,/,-1.4%,9.7%&-7.7%,/,2.5%
TRb SRC2 PPI,-5.7%,-2.5%,-8.2%,3.2%&-2.4%,-1.5%,-1.2%
TexasRed fluor,-2.1%,-2.5%,0.0%,-2.6%&0.3%,-7.5%,0.0%

(13) CCN(CC)CCCC(C)Nc1ccnc2cc(Cl)ccc12 (stereo not given)
(14) CCCC(=O)Nc1ccc(OC[C@@H](O)CNC(C)C)c(C(C)=O)c1
(15) N[C@H](Cc1ccc(O)c(O)c1)C(=O)O
(16) N[C@@H](Cc1ccc(O)c(O)c1)C(=O)O
(17) CCCC(CCC)C(=O)O
(18) CN(C)CC/C=C1/c2ccccc2Sc2ccc(Cl)cc21
Screen / compound no.,13,14,15,16,17,18
GLA spleen mod,9.7%&-5.3%,-0.3%[29.1 µM],0.7%&-7.3%,5.7%[29.1 µM],20.9%&-0.4%&2.5%&5.8%,9.1%&7.0%
ALDH1A1 block,-2.0%&0.4%,6.1%[20.9 µM],?,-5.3%[20.9 µM],3.3%&-0.2%&4.7%,/
TRb SRC2 PPI,0.2%&-2.0%,6.0%[53 µM],0.1%&14.7%,-3.4%[201 µM],7.4%,-4.2%&-0.3%
TexasRed fluor,-1.7%&-2.0%,-1.7%[53 µM],28.2µM*![quencher],-2.4%[201 µM],-1.0%,-22.5%&1.9%

(19) CC(C(=O)N1CCc2ccccc2C1)N1C(=O)c2ccccc2C1=O (stereo not given)
(20) Oc1c(I)cc(Cl)c2cccnc12
(21) COc1ccc(C[C@H](C)NC[C@@H](O)c2ccc(O)c(NC=O)c2)cc1
(22) CN1CCC(=C2c3ccccc3C=Cc3ccccc32)CC1
(23) CC1(C)C(C(=O)O)N2C(=O)CC2S1(=O)=O (stereo not given)
(24) COc1c2occc2cc2ccc(=O)oc12
Screen / compound no.,19,20,21,22,23,24
GLA spleen mod,4.9%,3.1%,2.9%,10.5%,-10.4%,4.3%
ALDH1A1 block,/,25.1µM*!,8.3%,2.9%,6.4%,-1.0%
TRb SRC2 PPI,-6.1%,4.7%,-6.2%,-4.3%,4.5%,-6.5%
TexasRed fluor,0.0%,1.9%,0.6%,5.0%,-20.3%,-1.0%

(25) CCc1nn(CCCN2CCN(c3cccc(Cl)c3)CC2)c(=O)n1CCOc1ccccc1
(26) Clc1ccc2nsnc2c1NC1=NCCN1
(27) COc1ccc2c(c1)c(CC(=O)O)c(C)n2C(=O)c1ccc(Cl)cc1
(28) CCc1c(C)[nH]c2c1C(=O)[C@H](CN1CCOCC1)CC2
(29) CCOC(=O)c1c(C)oc2ccc(O)cc12
(30) NO
Screen / compound no.,25,26,27,28,29,30
GLA spleen mod,7.7%&-3.0%&6.2%,4.9%&2.2%,-4.8%,1.1%[29.1 µM],0.7%,-25.3%
ALDH1A1 block,/,-4.0%,1.0%,5.2%[20.9 µM],6.8%,8.4%
TRb SRC2 PPI,5.7%&-6.8%&-3.3%,-3.8%&-3.9%&6.5%,0.4%,-6.1%[53 µM],-16.6%,-2.7%
TexasRed fluor,-20.2%&-2.6%&3.4%,-0.5%&-2.2%&-3.2%,-0.4%,-1.0%[53 µM],2.6%,3.5%

Screens (PubChem BioAssay)
